Tg IFNy HTS: T. gondii growth inhibition with IFN-gamma, primary screen, cell-based; Toxoplasma gondii growth in IFN-gamma-treated host cells; hits give low values; reference of the scale not given here; activity change, negative = inhibition, %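 (about 20 µM by stock and volumes)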; actives 3.8% (n = 69,000); AID 1259416, 2018;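 active means below -70%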;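 further: host cells are HeLa cells infected with Toxoplasma gondii; parasite growth read as luciferase light; one replicate is shown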
* = called active by the depositor; & = joins results of further samples. The list is partial; count on the stated rates, not on these rows.

SMILES | Tg IFNy HTS
C=C(C)COc1ccccc1C(=O)N(C)Cc1nc(-c2ccncc2)no1 | -13
COc1cc(-c2ccc(S(C)(=O)=O)cc2)nc(OC)n1 | 33
OCCNc1ccc(/C=C/c2ccccc2)nn1 | 54
Cc1ncc2c(n1)[C@]1(C)CCCN(C(=O)c3cn4c5c(cccc5c3=O)CC4)C1CC2 (stereo partly drawn) | 0
C[C@]12CC[C@@H]3c4ccc(O)cc4C[C@@H](CCCCCCCCCS(=O)CCCC(F)(F)C(F)(F)F)[C@H]3[C@@H]1CC[C@@H]2O (stereo partly drawn) | -78*
CCOC(=O)c1nn(Cc2ccccc2)c2c1CN(C(=O)Cn1nc3ccccc3n1)CC2 | -15
O=C(NCC1CC1)[C@@H]1CCS(=O)(=O)[C@H]2CN(c3ncc(F)cn3)C[C@@H]12 | 21
Cc1ccc(C(=O)N2CCC3(CCCN3c3ncccn3)CC2)cc1 | -4
O=C(NC1CCC1)[C@H]1C[C@H]2CN(Cc3ccc(Cl)cc3)C[C@H]1O2 | -93*
O=c1cc(CCCN2CCOCC2)nc(NCc2ccc(Cl)cc2)[nH]1 | -5
COc1ccc(CCC2CCN(C(=O)c3ccc(-n4cnnn4)cc3)CC2)cc1 | -2
CO[C@@H](CN(C)C(=O)Nc1ccc(Cl)cc1)[C@@H](C)CN(Cc1ccccc1Cl)[C@@H](C)CO | -36
CCCc1nc(N2CCC(O)(c3ccccc3)C2)c2cnn(C)c2n1 (stereo not drawn) | -16
O=C1CCC(=O)N1CN1CCC(CCCC2CCN(CN3C(=O)CCC3=O)CC2)CC1 | 27
COc1ccc(Br)cc1S(=O)(=O)Oc1ccccc1NC(C)=O | 1
CCOC(=O)c1cnn(C(=O)Cc2ccsc2)c1N | 46
CCC1CN(C(=O)c2ccc(-c3ccncc3)nc2)CCN1C(C)C (stereo not drawn) | 1
CCOc1ccc(S(=O)(=O)NCCSCc2ccco2)cc1 | -6
O=C(Cn1cnc2ccccc2c1=O)NC1(c2ccc3c(c2)OCO3)CCCC1 | -11
NC(=O)C1(C(=O)N(C/C=C/c2ccccc2)CCO)CC1 | -1
Cc1ccc(CNc2nc(-c3nnc(-c4ccccc4)o3)nc3ccccc23)o1 | -14
CCc1nc(Cn2cnc(-c3ccccc3)c2-c2cc(C)cc(F)c2)no1 | -18
COc1cccc(C(=O)NCCc2csc(-c3cccc(F)c3)n2)c1 | -48
OCC1(CCOc2ccccc2)CCCN(c2ncnc3nc[nH]c23)C1 (stereo not drawn) | -16
CC(=O)Cn1nnc2ccccc2c1=O | -15

Laid out differently: 4 of the compounds above
SMILES: Cc1ncc2c(n1)[C@]1(C)CCCN(C(=O)c3cn4c5c(cccc5c3=O)CC4)C1CC2 (stereo partly drawn)
- Tg IFNy HTS: 0

SMILES: C[C@]12CC[C@@H]3c4ccc(O)cc4C[C@@H](CCCCCCCCCS(=O)CCCC(F)(F)C(F)(F)F)[C@H]3[C@@H]1CC[C@@H]2O (stereo partly drawn)
- Tg IFNy HTS: -78*

SMILES: CCOC(=O)c1nn(Cc2ccccc2)c2c1CN(C(=O)Cn1nc3ccccc3n1)CC2
- Tg IFNy HTS: -15

SMILES: O=C(NCC1CC1)[C@@H]1CCS(=O)(=O)[C@H]2CN(c3ncc(F)cn3)C[C@@H]12
- Tg IFNy HTS: 21

(cont.)
SMILES | Tg IFNy HTS
C[C@H](NC(=O)C[C@H]1C=C[C@H](NS(=O)(=O)c2cccc(F)c2)[C@@H](CO)O1)c1ccccc1 | -38
N#Cc1cccc(N2CC3(CCN(c4nccs4)C3)CC2=O)c1 (stereo not drawn) | -19
CSCCC(C(=O)N(C)CC1OCCc2ccccc21)n1cnnn1 (stereo not drawn) | -4
CC(=O)N1CC[C@@H]2[C@H](CO)Nc3ccc(-c4ccccc4)cc3[C@@H]21 | 1
O=C(O)c1ccccc1C(=O)OCCO | -28
CCCC(=O)Nc1ccc2c(c1)OC[C@@H](C)N(CC1CCOCC1)C[C@@H](C)[C@@H](OC)CN(C)C2=O | -63
CCn1c(SCc2nc(-c3cccc(C)c3)oc2C)nc2c(=O)[nH]cnc21 | 93
Cc1ccc(C)c(-c2coc(-c3ccc(NC(=O)C(C)C)cc3)n2)c1 | -32
Cc1ccc(-c2cc(C(=O)Nc3ccc4c(c3)N(S(C)(=O)=O)CCC4)[nH]n2)cc1 | -78*
CCn1c(=O)c(-c2nc(-c3cccc(OC)c3)no2)c(O)c2ccccc21 | -27
COCc1cnc2n1CCN(C(=O)c1cc3ccccc3o1)C2C (stereo not drawn) | 9
COc1ccc(-c2ccc3c(c2)[C@@H]2[C@@H](CCN2C(=O)c2ccncc2)[C@H](CO)N3C)cc1 | -31
CCOc1ccccc1-c1nnc(NC(=O)c2nn(CC)c(=O)c3ccccc23)s1 | 3
Cn1ccnc1SCCNC(=O)C1CC2(CCNCC2)CN1 (stereo not drawn) | 3
CN(C)S(=O)(=O)N1CCOCC(C(=O)O)C1 (stereo not drawn) | -55
CN1C[C@@H](NC(=O)c2ccccc2Cl)C[C@H]1C(=O)NCc1ccccn1 | -1
O=C(c1ccc(F)cc1)C1CCN(Cc2cnc(-c3ccccc3)[nH]2)CC1 | -27
CCC(C)NC(=O)N1CCC2(CC1)Nc1ccccc1-n1cccc12 (stereo not drawn) | 142
Cc1ccc(C(Cc2ccsc2)NS(=O)(=O)C2CCS(=O)(=O)C2)nc1 (stereo not drawn) | 12
CN(C)C(=O)C1CN(C(=O)c2coc(COc3cccc(F)c3)n2)CCO1 (stereo not drawn) | -4
Cc1nc(OCC(=O)Nc2ccccc2C(F)(F)F)c2ccccc2n1 | 6
c1ccc(-c2cc(Sc3nnc(-c4ccncc4)n3-c3ccccc3)n3ncnc3n2)cc1 | -20
OCC1(CCc2ccccc2)CCCN(c2ncnc3nc[nH]c23)C1 (stereo not drawn) | -14
CO[C@H]1COC[C@@H]1n1cnc(-c2ccccc2)c1-c1ccc2occc2c1 | -78*
CC(=O)NCCC1CN(Cc2cccc(-n3cccn3)c2)CCO1 (stereo not drawn) | 1
(next part)
SMILES | Tg IFNy HTS
COc1ccc(CC(=O)NCCc2csc(-c3ccc(Cl)cc3)n2)cc1OC | 13
CCCOCC1CCN(c2cc(N(C)C)ncn2)C1 (stereo not drawn) | 14
Cc1ccc(C2=NC3(CCN(CC(=O)Nc4cccc(C)c4)CC3)NC2=O)cc1 | 67
O=C(NC1CCCCC1)N1CC2(C1)[C@@H](c1ccccc1)[C@@H](CO)N2CC1CCCC1 | 77
CN(c1cncc(C(=O)NCc2cccnc2)c1)S(=O)(=O)c1ccccc1 | -3
Cc1ccc2oc(=O)n(CCC(=O)O)c2c1 | 25
COc1ccc(CC(=O)N2CCc3nc(CNC(=O)C4CCC4)n(C)c3C2)cc1 | 37
CCOC(=O)Cn1c(S(=O)(=O)Cc2ccccc2)nc2ccccc21 | -11
CCc1ccc(NC(=O)N2CCC3(CC2)OC(C(=O)NCC(C)C)Cn2ccnc23)cc1 (stereo not drawn) | 60
Cc1ccc(S(=O)(=O)N2CCN(CCCc3ccccc3)CC2)cc1 | -47
C[C@H]1CN([C@@H](C)CO)C(=O)c2cc(-c3cccc(C#N)c3)cnc2O[C@H]1CN(C)C(=O)C1CCOCC1 | 157
CCN1C(=O)CCc2cc(NS(=O)(=O)c3cccc(C)c3)ccc21 | -43
Cc1nc2ncccn2c1C(=O)N1CCCC(C(=O)c2ccc3c4c(cccc24)CC3)C1 (stereo not drawn) | -1
COCC(=O)Nc1ccc2c(c1)OC[C@@H](C)N(C)C[C@@H](C)[C@H](OC)CN(C)C2=O | 47
CCOC(=O)N1CCC2(CC1)OC(=O)C(C)=C2C(=O)NCCC(C)C | 94
COc1cccc(-c2cn[nH]c2C2CCCN2S(=O)(=O)c2ccc(Cl)cc2)c1 (stereo not drawn) | -32
Cc1nn2cc(CCNC(=O)C3CC(=O)N(CC(C)C)C3)nc2s1 (stereo not drawn) | 0
COCC(=O)N1C[C@H]2CCCC(N3CCN(c4ncccn4)CC3)[C@@H]2C1 (stereo partly drawn) | 97
Oc1ccc(CN2CCOc3c(O)cc(-c4cccc(Cl)c4)cc3C2)cc1 | 3
CCCN(CC#Cc1ccccc1)C(=O)c1ccc(CO)cc1 | 61
COc1ccc2c(c1)NC1(CCN(S(=O)(=O)c3ccccc3)CC1)c1cccn1-2 | -3
CC(=O)Nc1ccc(C(=O)N2CCCCC2CCc2ccc(O)cc2)cc1 (stereo not drawn) | 6
Cn1cc(CN2C[C@@H](c3ccccc3)[C@@]3(CCNC3=O)C2)cn1 | -30
CC[C@H]1OC(=O)[C@H](C)[C@@H](O[C@H]2C[C@@](C)(OC)[C@@H](O)[C@H](C)O2)[C@H](C)[C@@H](O[C@@H]2O[C@H](C)C[C@H](N(C)C)[C@H]2O)[C@](C)(O)C[C@@H](C)[C@@H]2N[C@@H](COCCOC)O[C@H]([C@H]2C)[C@]1(C)O | -29&14
C#C[C@]1(OC(C)=O)CC[C@H]2[C@@H]3CCC4=C[C@@H](OC(C)=O)CC[C@@H]4[C@H]3CC[C@@]21C | -34

Given in markdown: seven of the compounds above.
| smiles | Tg IFNy HTS |
| --- | --- |
| COc1cccc(-c2cn[nH]c2C2CCCN2S(=O)(=O)c2ccc(Cl)cc2)c1 (stereo not drawn) | -32 |
| Cc1nn2cc(CCNC(=O)C3CC(=O)N(CC(C)C)C3)nc2s1 (stereo not drawn) | 0 |
| COCC(=O)N1C[C@H]2CCCC(N3CCN(c4ncccn4)CC3)[C@@H]2C1 (stereo partly drawn) | 97 |
| Oc1ccc(CN2CCOc3c(O)cc(-c4cccc(Cl)c4)cc3C2)cc1 | 3 |
| CCCN(CC#Cc1ccccc1)C(=O)c1ccc(CO)cc1 | 61 |
| COc1ccc2c(c1)NC1(CCN(S(=O)(=O)c3ccccc3)CC1)c1cccn1-2 | -3 |
| CC(=O)Nc1ccc(C(=O)N2CCCCC2CCc2ccc(O)cc2)cc1 (stereo not drawn) | 6 |

More results:
SMILES | Tg IFNy HTS
Fc1cccc(CN(CCCn2ccnc2)Cc2cnc(N3CCCCC3)nc2)c1 | -36
C[C@@H]1CCCCO[C@@H](CN(C)C(=O)C2CCCCC2)[C@H](C)CN([C@@H](C)CO)C(=O)c2cc(NS(=O)(=O)c3ccccc3)ccc2O1 | -68
COCCC(=O)c1cc(-c2cnc(-c3cccnc3)nc2)cn1C | -39
Cc1ccc2[nH]c(CCNc3nc(CCN)nc4ccccc34)nc2c1C | -3
CCS(=O)(=O)N1CCC2(CN(c3ccccc3)C(=O)CN2C)C1 (stereo not drawn) | -3
Cc1cc(C(=O)N(C)Cc2c(C)noc2C)c2cccc(C)c2n1 | -1
O=C1NC2(CCc3ccccc31)CCN(Cc1ccc(N3CCCC3=O)cc1)C2 (stereo not drawn) | 64
C=CCc1c(C)[nH]n(-c2cccc(C(=O)O)c2)c1=O | -4
N#CC1C(C#N)N2CCCN2C1c1ccc(Cl)cc1 (stereo not drawn) | 72
O=C1NCC2(CCCN(C(=O)CCc3n[nH]c4c3CCCC4)C2)O1 (stereo not drawn) | 7
COc1ccc(C[C@H]2CN(Cc3cc(C)on3)CC[C@@H]2OC)cc1 | -11
COc1cc(-c2ccc(OC)c(Cl)c2)nc(N)n1 | 137
Cc1cc(C)n(Cc2nc(-c3ccc(NC(=O)c4ccsc4)cc3)oc2C)n1 | 5
Cc1cc(F)ccc1NC(=O)Cn1c(=O)cc(-c2nc(C(C)C)no2)c2ccccc21 | 54
CCOC(=O)CSC1=Nc2ccccc2C2=NC(CCC(=O)NCc3ccccc3OC)C(=O)N12 (stereo not drawn) | 2
C(=C1/CCCC2C(c3ccccc3)C3=C(CCCC3)OC12N1CCCC1)/c1ccccc1 (stereo not drawn) | -13
CC(=O)Nc1ccc(OS(=O)(=O)c2cc(Cl)ccc2C)cc1 | 4
CCN(CC)C(=O)Sc1nc2cc(Cl)ccc2s1 | -51
COc1ccc(CN2CCCCC2C(=O)Nc2ccc(OC)c(OC)c2)cc1OC (stereo not drawn) | 16
FC(F)(F)Oc1ccc(-c2cn3cccnc3n2)cc1 | 166
O=C(c1ccc[nH]1)N1CCN(Cc2cccnc2)c2ncccc2C1 | 2
CS(=O)(=O)N1CCOCC2(CN(C(=O)c3ccc[nH]3)CCO2)C1 (stereo not drawn) | 280
COC(=O)C1CCCN1C(=O)C1(Oc2ccc(C)cc2)CCNCC1 (stereo not drawn) | -4
CCn1c(=O)c(-c2nc(-c3ccccc3F)no2)c(O)c2cc(F)ccc21 | 36
COc1ccc(CN2C[C@H](O)COC[C@H]3O[C@@H](CC(=O)N(C)C)CC[C@@H]32)cc1 | 18
Continued:
SMILES | Tg IFNy HTS
OC[C@H]1Nc2ccc(C#Cc3ccc(F)cc3)cc2[C@@H]2[C@H]1CCN2Cc1ccc2c(c1)OCO2 | -59
COc1ccc(S(=O)(=O)N2C[C@@H](N)[C@H](c3cn(C)c4cnccc34)C2)cc1 | 13
Cc1cc(C)n(-c2nnc(SCC(=O)Nc3ccccc3)c3ccccc23)n1 | 3
CN1CCN(C(=O)C2C3CCC(O3)C2C(=O)O)CC1 (stereo not drawn) | 8
Cc1oc(-c2cccc(Cl)c2)nc1Cn1ccn2nc(-c3cccs3)cc2c1=O | -52
COc1ccc(CCNC(=O)c2ccccc2NC(=O)c2ccccc2C)cc1OC | 6
COc1ccc(-c2c(C)c3ccc(OCC(C)=O)cc3oc2=O)cc1 | 202
O=C(CCn1cnnn1)N1CCC(CCc2ccccc2F)CC1 | 6
CCN1c2ccc(C)cc2C(=O)NC12CCN(C(=O)c1ccc(F)cc1)CC2 | 3
CCCNC(=O)Nc1ccc(Oc2ncnc3cc(OC)c(OC)cc23)cc1Cl | -4
COc1ccc(-c2cc3nc(CCNC(=O)c4ccncc4)nn3cn2)cc1 | -37
C[C@H](NC(=O)C[C@@H]1CC[C@H]2[C@@H](COC[C@H](O)CN2C(=O)Nc2cccc(Cl)c2)O1)c1ccccc1 | -25
CCOC(=O)C1CCCN(C(=O)S(=O)(=O)c2ccc(-c3csc(C)n3)s2)C1 (stereo not drawn) | 21
CC(C)C(=O)c1nc2c(s1)CCCN2Cc1ccccc1 | 30
CC(c1ccon1)N(C)S(=O)(=O)NCc1ccccc1 (stereo not drawn) | 3

Some of the entries above, reformatted:
| structure | Tg IFNy HTS |
| --- | --- |
| CN1CCN(C(=O)C2C3CCC(O3)C2C(=O)O)CC1 (stereo not drawn) | 8 |
| COc1ccc(S(=O)(=O)N2C[C@@H](N)[C@H](c3cn(C)c4cnccc34)C2)cc1 | 13 |
| CCN1c2ccc(C)cc2C(=O)NC12CCN(C(=O)c1ccc(F)cc1)CC2 | 3 |
